Screens from PubChem BioAssay.
Vaccinia Venus: vaccinia inhibition (Venus reporter); Potency, µM (doses to about 36.5 µM), for inactives: at the top dose activity change, negative = inhibition, actives largely listed as inhibitors; 330,000 compounds, 0.46% hits; AID 720580; Vaccinia virus Venus reporter expression, fluorescence; active means well fitted inhibition curve with a large enough effect; inconclusive means small, poorly fitted or top-dose-only effect; inactive means no such curve, though single readings can be large or run the other way; tested in A549 cells; also: nearly all actives have a fitted effect of over 30% in size; inactives centre near -10
Vaccinia mCherry: vaccinia inhibition (mCherry reporter) | Potency, µM (top dose mostly 36.5 µM), without a hit: at the top dose activity change, negative = inhibition, hits mostly inhibitors | 310,000 compounds, 0.63% hits | Vaccinia virus mCherry reporter infection, fluorescence; about a quarter of the inactives have no number; active = well fitted inhibition curve with a large enough effect; inconclusive = small, poorly fitted or top-dose-only effect; inactive = no such curve, though single readings can be large or run the other way; tested in A549 cells; also: nearly all actives have a fitted effect of over 35% in size; inactives centre near -10
The depositor's hits bear a star; i = inactive; ? = inconclusive; . = no result given; & = joins results of further samples; [ ] = remark or other dose. % is scaled to controls: 0 for no effect and ±100 for the full control effect; potency is read from the fitted curve at half-maximal effect.

compound	Vaccinia Venus	Vaccinia mCherry
COc1ccc(S(=O)(=O)N2CCCC(C(=O)NCc3ccccn3)C2)cc1 (configuration not stated)	15.7%	.
CC(C)CCC(=O)N1CCOC1=O	-9.5%	i
CCOc1ncccc1C(=O)NCCc1ccc(S(N)(=O)=O)cc1	-9.9%	-9.2%
Cc1cnc(C(=O)OCC(=O)NC(C)CCc2ccccc2)cn1 (configuration not stated)	1.1%	i
O=C(Nc1cccc(C(F)(F)F)c1)c1cc(-c2ccc(F)cc2)on1	0.1%	-0.9%
c1ccc(-c2noc(-c3cccs3)n2)nc1	-16.0%	-1.2%
O=C1OC(CCl)CN1Cc1c(Cl)cccc1Cl (configuration not stated)	-11.3%	i
O=C(CSc1nc2ccccc2s1)NCCOc1ccc(Cl)cc1	-8.6%	i
COc1ccc(CN2CCSCC2)c(C)c1C	-7.4%	i
COC(=O)c1c(NC(=O)CN2CCCC(C)C2)c2c(C)cccc2n1C (configuration not stated)	?	.
CCN(Cc1ccccc1)C(c1cccs1)c1nnnn1C1CCCCC1 (configuration not stated)	-10.7%	-13.4%
CC(C)NS(=O)(=O)c1ccc(OCC(=O)Nc2ccc(F)cc2)cc1	-2.8%	-2.5%
CC(C)(C)C1CCC(OC(=O)CN2CCCCC2)CC1 (configuration not stated)	-4.2%[7.34 µM]	-2.1%[7.34 µM]
CC(OC(=O)CN1C(=O)c2ccccc2C1=O)C(=O)NCc1ccccc1 (configuration not stated)	-2.3%	-8.7%
COC(=O)C1=C(c2ccc(-c3ccccc3)c(F)c2)C[C@@H]2CC[C@H]1N2C(=O)N1CCCC1	?	22.4µM*
Cc1cc2c(cc1C)-n1nnnc1C(N(C)Cc1ccccc1)C(=O)N2 (configuration not stated)	-20.8%	?
CC1=CC(C)(C)N(C)C(=O)N1c1ccc(Cl)cc1	?	.
COc1cccc(C(=O)NCC2Cc3c(F)ccc(-c4ncccn4)c3O2)c1OC (configuration not stated)	?	-9.1%
Cc1cc([N+](=O)[O-])cnc1NC(C)c1ccccc1 (configuration not stated)	-8.6%	-15.7%
Cc1ccc(CNC(=O)c2c(O)nc3cc(C)ccn3c2=O)cc1	-2.4%	-3.2%
CCc1ccccc1C1=CC(=O)C[C@H](c2ccc(OC)cc2)C1	-19.8%	-17.0%
Cc1cc(Cl)ccc1OCC(=O)OC(C)C(=O)N(C)C (configuration not stated)	-8.2%	-8.9%
Cc1cccc(NC(=O)CN2C(=O)CCn3nc(-c4cccn4C)cc32)c1C	7.5%	-16.6%
COc1ccccc1CNC(=O)Cn1ncn2c(cc3sccc32)c1=O	-6.9%	2.3%
CC1(c2nnc(Cc3ccccc3)o2)CC(c2ccc([N+](=O)[O-])cc2)=NO1 (configuration not stated)	-10.0%	-5.6%

2 entries from above, with two lines to a compound:
Each structure is followed by: Vaccinia Venus	Vaccinia mCherry
O=C1OC(CCl)CN1Cc1c(Cl)cccc1Cl (configuration not stated)
 : -11.3%	i
O=C(CSc1nc2ccccc2s1)NCCOc1ccc(Cl)cc1
 : -8.6%	i

Compound profiles, from the list above:
Record of Cc1cc(Cl)ccc1OCC(=O)OC(C)C(=O)N(C)C (configuration not stated) : Vaccinia Venus: -8.2%; Vaccinia mCherry: -8.9%
Record of CC(C)(C)C1CCC(OC(=O)CN2CCCCC2)CC1 (configuration not stated) : Vaccinia Venus: -4.2%[7.34 µM]; Vaccinia mCherry: -2.1%[7.34 µM]
Record of COc1ccc(S(=O)(=O)N2CCCC(C(=O)NCc3ccccn3)C2)cc1 (configuration not stated) : Vaccinia Venus: 15.7%; Vaccinia mCherry: .

(listing goes on)
compound	Vaccinia Venus	Vaccinia mCherry
O=S(=O)(CCN1CCCCC1)CCS(=O)(=O)CCN1CCCCC1	-7.7%	i
O=C(CSCc1ccccc1Cl)N1CCN(c2ccc(Cl)cc2)CC1	-5.8%	-6.2%
COC(=O)c1[nH]c2cc(OC)c(OC)cc2c1NC(=O)Oc1ccccc1	-20.8%	.
Cc1ccc(-n2ncc(C(=O)NCc3ccccn3)c2C2CCN(C(=O)OC(C)(C)C)CC2)c(C)c1	-12.7%	-23.9%
CCNC(=O)NC(=O)C(C)OC(=O)CCCSc1nc2ccccc2s1 (configuration not stated)	-7.7%	-14.4%
CCOc1ccc(C2=C(C(=O)CC)Sc3nncn3N2C(=O)CC)cc1	?	?
CCCc1[nH]n(-c2ccc(F)cc2)c(=O)c1C=Nc1cccc(F)c1	-15.8%	-24.6%
O=[N+]([O-])c1cc(-c2nnc(Nc3ccccc3)c3ccccc23)ccc1N1CCOCC1	?	?
Cc1ccc(S(=O)(=O)n2ccc3c2CCCC3=O)cc1	-16.8%	i
COc1cccc(-c2cc3c(-n4cccc4)ncnc3o2)c1	-5.7%	-11.4%
Cc1cccc(Cn2cnc3c(N)c(C)c(C)cc32)c1	-16.9%	?
CCN(CC)S(=O)(=O)c1ccc2c(c1)nc(CCC(=O)Nc1ccc(N3CCOCC3)cc1)n2C	-5.4%	-9.5%
Cc1ccccc1NC(=O)Cc1nc(COC(=O)COc2cccc(C)c2C)cs1	-4.3%	-8.7%
Cc1ccc(CCNC(=O)c2cc3c(-c4ccccc4F)nn(C)c3s2)cc1	-4.9%	-6.1%
COc1ccc(S(=O)(=O)N2CCOC2CNC(=O)C(=O)NCCc2ccccc2)cc1C (configuration not stated)	-19.5%	?
CCc1noc(C)c1C(=O)OCC(=O)NC(=O)c1ccccc1OC	-4.3%	i
CCc1ccc(NC(=O)Cn2nc(C(=O)O)c3ccccc3c2=O)cc1	-24.6%	-6.8%
CCOc1cc2[nH]c(=O)n(CCCC(=O)NCc3ccc(OC)cc3)c(=O)c2cc1OCC	-8.2%	0.7%
COc1ccc(C(=O)Oc2ccc3ccc(=O)oc3c2)cc1OC	-7.6%	i
O=C(Cn1cc(C(=O)c2ccco2)c2ccccc21)NC1CCCCC1	-13.3%	i
O=C(c1cccs1)c1c[nH]cc1-c1ccccc1	-11.2%[7.34 µM]	-9.1%[7.34 µM]
O=C(O)c1cc(=O)n(Cc2ccccc2)c(=O)[nH]1	-1.1%	-5.1%
COc1ccc(C(=O)N2CCCC(c3ccccc3)=N2)cc1	-9.0%	-14.6%
Cn1c(S(=O)(=O)O)nc2ccccc21	-0.7%	-3.0%
CC1Cc2ccccc2N1C(=O)COC(=O)Cc1ccc(F)cc1 (configuration not stated)	1.3%	-10.0%
O=C(CN(C(=O)CNS(=O)(=O)c1ccccc1)c1ccc2c(c1)OCCO2)NCc1ccco1	-26.8%	.
COc1cc(OC)cc(-c2c(Sc3ccccc3)c3cc(-c4ccc(SC)cc4)ccc3n2C)c1	8.8%	-4.8%
Cc1ccc(-c2cc(C(=O)Nc3ccccc3C(N)=O)c3ccccc3n2)o1	-9.7%[7.34 µM]	-8.7%[7.34 µM]
C(=N\Nc1ccccn1)/c1c[nH]c2ccccc12	?	?
CCCCCCCCCCCCCCCC(=O)N[C@H](CN1CCOCC1)[C@H](O)c1ccccc1	-7.0%[3.33 µM]	i[3.33 µM]
CC(O)[C@@H](C(=O)N1CCNCC1)n1cc(CCCCN)nn1 (some centres not stated)	-10.7%	i
CC(=O)/C(=N/Nc1ccc(C)cc1)Sc1nnc(CCc2ccccc2)n1-c1ccccc1	1.3%	-6.6%
NC(=O)c1ccccc1NC(=O)CCCc1ccccc1	-14.4%	-4.9%
c1ccc(CCn2nnnc2C(c2cccnc2)N2CCOCC2)cc1 (configuration not stated)	5.6%	i
COC(C[C@@H](O)CC(=O)[C@@H](C)OCc1ccccc1)OC	3.6%	-14.6%
COc1ccc(-c2nnc(SCc3nnc(-c4ccccc4)o3)n2C)cc1OC	-5.8%	-14.3%
CCNC(=O)C1CC(=O)N(Cc2ccc(F)cc2)C(=Nc2ccc(OC)cc2)S1 (configuration not stated)	-17.4%	i
COC(=O)CSc1nnc(CNC(=O)c2ccc(OC)c(OC)c2)n1C	-7.0%	-3.6%
C[C@]12C=CC(=O)C=C1CC[C@@H]1[C@@H]2C(=O)C[C@@]2(C)[C@H]1CC[C@]2(O)C(=O)CO	-5.4%&-14.0%	-9.8%&-1.6%
Cc1ccccc1C(=O)Nc1ccnn1C1CCN(Cc2cccnc2)CC1	-2.8%	i
O=C(c1ccccc1F)N(Cc1ccccc1)C1CCS(=O)(=O)C1 (configuration not stated)	-16.3%	-12.6%
Cn1c(Cc2cccs2)nnc1SCC(=O)Nc1ccc(C(N)=O)cc1	-8.6%	i
COc1cc(-c2nc3ccccn3c2/N=C/c2cccc(F)c2)ccc1O	3.8%	-1.5%
NC(=O)c1cccnc1OCC(F)(F)F	-0.3%	i
COC(=O)CC1(C(=O)OC)Oc2ccc(Br)cc2C(=O)N1c1cc(Cl)cc(Cl)c1 (configuration not stated)	2.0%[7.34 µM]	-14.2%[7.34 µM]
CSc1cc(-c2ccc(Cl)cc2)c(C(=O)NC(C)C)s1	-7.9%	-14.7%
Cc1cc(OCc2cc3c(cc2Cl)OCO3)c2c(C)cc(=O)oc2c1	?	-17.7%
CCOc1cc2c(cc1C=O)OC(C)C2 (configuration not stated)	0.5%	-11.8%
O=C(OCc1c(-c2ccccc2)ncc2ccccc12)N1CCOCC1	-16.0%	-2.5%
CCC(C)(C)NC(=O)Cn1c(-c2ccc(C)cc2)noc1=O	-3.6%	0.4%

Next section:
compound	Vaccinia Venus	Vaccinia mCherry
COc1ccc(C)cc1-n1nnc(S(=O)(=O)c2ccc(C)cc2)c1C	0.6%	-3.1%
CCC1CN(C(=O)N2CCC(C(=O)NCCCc3ccccc3)CC2)c2ccccc2O1 (configuration not stated)	-11.9%	-6.4%
O=C(C[C@H]1C/C=C\C[C@H](NC(=O)OCC2c3ccccc3-c3ccccc32)C(=O)OC[C@H](Cc2ccccc2)NC1=O)N[C@H](CO)Cc1ccccc1	-28.3%	i
Cc1cccc(Cn2c(C(=O)OC(C)C)cc3c2ccn3C)c1	-19.2%	-24.9%
CSc1ncccc1C(=O)OCC(=O)NC(=O)NCCC(C)C	-6.9%	-14.1%
COCCNC(=S)N1CCN(C/C=C/c2ccccc2)CC1	-8.2%	-1.4%
Cc1sc2ncnc(SCC(=O)NC(C)(C)C)c2c1C	-13.8%	-11.2%
COc1ccccc1-n1c(CNCC2CCCO2)nc2ccccc2c1=O (configuration not stated)	3.1%	3.1%
COc1ccc(NC(=S)Nc2cc(C)cc(C)n2)cc1OC	-1.4%	-16.4%
COC(=O)CN(C(=S)Nc1ccc(F)cc1)C1CC(=O)N(c2ccccc2)C1=O (configuration not stated)	-12.2%	-16.6%
CCCCN1C(=O)NC(=O)C2(Cc3cc(C)ccc3N(C)C2)C1=O (configuration not stated)	-6.6%	.
COc1ccc2sc(-c3ccc(N(C)C)cc3)c(C#CCO)c2c1	?	12.6µM*
Cc1c(C#N)c(O)[nH]c(=O)c1N=Nc1ccc(Br)cc1C(=O)O	-3.9%	i
CCCNC(=O)C1(C)CCN(C(=O)c2cccc(C#N)c2)C1 (configuration not stated)	-2.5%	i
COc1cccc(C(=O)N2C(C(=O)O)CSC2c2ccccc2Cl)c1 (configuration not stated)	-11.2%	-14.4%
O=C(NCC(c1ccco1)N1CCCCC1)c1ccc([N+](=O)[O-])s1 (configuration not stated)	?	?
CC(C)C[C@@H]1CN(CCCC[C@H]2CNC(=O)C(=O)N2CCC2CCCCC2)C(=O)C(=O)N1Cc1ccccc1	-0.6%	1.7%
CCCSc1nnc(Cn2c(=O)sc3ccccc32)n1-c1ccccc1	-6.2%	-12.4%
CCOC(=O)C(C#N)=C1CCC=C(C)C1	0.7%	i
COc1ccccc1/C=N/NC(=O)c1ccc(=O)n(C)c1	-8.9%	-6.6%
Cn1c(=O)n(C)c2cc(N3CCCCC3)c(NC(=O)c3c(F)cccc3F)cc21	-5.8%	-9.3%
CCCCN1CC(COc2ccccc2)OC1=O (configuration not stated)	-2.7%	-9.9%
COc1ccc(/C=C/C(=O)NCCC(=O)N2CCCN(C)CC2)cc1	-8.8%	i
O=C(c1ccco1)N1CCN(C(c2coc3ccc(Cl)cc3c2=O)c2nnnn2C2CCCC2)CC1 (configuration not stated)	3.8%	i
CCN(CC)C(=O)[C@H]1CC(CC(=O)NCCN2CCOCC2)C(=O)N2CCc3c([nH]c4ccccc34)[C@]12C (some centres not stated)	-4.2%	i
O=C(O)CCC(=O)Nc1nc2nc(-c3ccccc3)cc(-c3ccccc3)n2n1	-5.3%	.
CCC(=O)N(CCC1(c2ccccc2OC)CCOC(C(C)C)C1)Cc1ccco1 (configuration not stated)	-20.0%	-12.4%
C=CCNC(=O)c1onc(CSc2cccc(OCC)c2)c1C(=O)O	-11.6%	i
